Screening results (PubChem)
TRPML1 inh: blocks the human TRPML1 channel; Q9GZU1; TRPML1-inducible cells, Ca2+ dye fluorescence, FDSS; hits give low values; inhibition of EC80 agonist-evoked calcium signal; 0.02% of 390,000 active; AID 624415; activity change, negative = inhibition, % (concentration not given with the values); in the data active means activity change below about -50%; inconclusive means about -30% to -50%; inactive means above about -30%;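 further: stimulus is agonist 54-4 at its EC80 concentration; on the % scale 0 is the no-effect control and ±100 the full control effect; compound concentration not given in the record; the text of the record puts the active cut at -80%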
Target sequence (Q9GZU1 whole entry, looked up): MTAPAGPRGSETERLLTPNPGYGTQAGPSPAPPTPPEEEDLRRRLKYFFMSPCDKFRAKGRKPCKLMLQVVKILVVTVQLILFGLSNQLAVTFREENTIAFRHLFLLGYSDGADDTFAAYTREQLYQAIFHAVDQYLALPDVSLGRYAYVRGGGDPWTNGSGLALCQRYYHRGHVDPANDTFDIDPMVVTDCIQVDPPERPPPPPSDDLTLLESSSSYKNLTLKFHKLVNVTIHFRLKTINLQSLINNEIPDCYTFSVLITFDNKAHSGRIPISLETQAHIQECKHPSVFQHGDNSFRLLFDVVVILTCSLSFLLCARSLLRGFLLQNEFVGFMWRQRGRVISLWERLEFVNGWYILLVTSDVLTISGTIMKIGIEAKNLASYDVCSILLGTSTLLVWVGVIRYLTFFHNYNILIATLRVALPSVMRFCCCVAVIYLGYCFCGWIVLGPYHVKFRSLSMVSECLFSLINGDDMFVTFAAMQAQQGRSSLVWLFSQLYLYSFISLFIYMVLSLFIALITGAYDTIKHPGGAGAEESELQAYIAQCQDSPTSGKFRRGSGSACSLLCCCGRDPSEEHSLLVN
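Calcium fluorescence in TRPML1-DL cells induced overnight with Tet: a 110 s read after compound pin addition, then a 110 s antagonist read after challenge with 54-4 at 4 uM final (EC80).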
gsp antagonist: antagonists of gsp mutant (McCune-Albright syndrome). gsp-mutant cells, cAMP HTRF, 30 min; control for the full effect not named in the record. Potency, µM (series often up to 76.9 µM), for the others: at the top dose activity change, negative = inhibition, usual class: inhibitors. 0.4% of 340,000 active; active = falling curve of any shape with a large fitted effect; inconclusive = falling curve, mostly with a smaller effect; inactive = flat or rising curve; cell line not stated here;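 further: intracellular cAMP measured with PDE inhibitor Ro 20-1724 present during compound exposure; potency means the concentration at half of the fitted maximal effect; on the % scale 0 is the no-effect control and ±100 the full control effect; nearly all actives have a fitted effect of over 65% in size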
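Cells in G418 medium, seeded 16-24 h, 37C; buffer exchange to DPBS + 1 mM CaCl2, 0.5 mM MgCl2, 0.05% BSA; cpds in DMSO + […] (300 uM stock), 30 min 37C; HTRF cAMP detection.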
Menin-MLL FL inh: inhibitors of human menin-MLL interaction, wild-type MLL peptide; Fluorescence polarization, fluorescein-MLL peptide displacement from menin; FP activity change, % at 61.4 µM; 290,000 tested, under 10 active; AID 1766; inconclusive = falling polarisation curve, or a change in total fluorescence; inactive = total fluorescence flat and polarisation flat or rising; no compound was filed as active; the % refers to the polarisation; negative = inhibition;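 further: % of control where 0% means no effect; inhibitors lower the polarisation; unlabelled MLL peptide was the positive control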
gsp agonist: activates gsp, the McCune-Albright syndrome mutation | gsp mutant cells, cAMP HTRF, 30 min; control for the full effect not named in the record | Potency, µM (top dose mostly 76.9 µM), for the others: at the highest dose activation (cAMP increase), usual class: activators | 0.13% of 340,000 active | AID 624287; active = well fitted activation curve with a large enough effect; inconclusive = small, poorly fitted or top-dose-only effect, or another doubt; inactive = no such curve, though single readings can be large or run the other way; cell line not stated here;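 further: phosphodiesterase inhibitor Ro 20-1724 added with compounds to block cAMP breakdown; potency means the concentration at half of the fitted maximal effect; nearly all actives have a fitted effect of over 60% in size; about a fifth of the inactives were tested at one dose only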
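Cells stably selected in G418 were plated at 2000/well, grown 16-24 hr, then given compounds in DMSO with the PDE inhibitor […] (300 uM solution added) for 30 min at 37C; cAMP was read by HTRF.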
TRPV1 potentiator: human TRPV1 potentiation; Q8NER1; TRPV1-expressing cells, Fluo-8 calcium influx, capsaicin EC20 potentiation; host cell line not named in the record; control for the full effect not named in the record; potentiation, % at 8.33 µM; 0.02% of 320,000 active; AID 540277; active means potentiation above 80%; inconclusive means 30% to 80%; inactive means below 30%; further: 0% is about no effect
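Cells expressing TRPV1 were dye-loaded with Fluo-8 and read kinetically: 10 s baseline, 3 min after compound (agonist portion), then 2 min after EC20 capsaicin (allosteric enhancer portion). Calcium-bound dye fluorescence at 480/520 nm.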
ClpP mod: qHTS Assay for Activators of ClpP | ATP-dependent Clp protease proteolytic subunit (Bacillus subtilis (strain 168)), P80244 | purified B. subtilis ClpP, FRET peptide cleavage, 20 min | Potency, µM (series often up to 57.5 µM), for the others: top-dose activity change, negative = active | 1.9% of 340,000 active; active = well fitted falling curve with a large enough effect; inconclusive = small, poorly fitted or top-dose-only effect; inactive = no such curve, though single readings can be large or run the other way; further: potency means the concentration at half of the fitted maximal effect; the source files actives as falling curves though it sought activators and does not explain the sign; nearly all actives have a fitted effect of over 65% in size; many hits overshoot -100%
Target sequence (P80244 whole entry, looked up): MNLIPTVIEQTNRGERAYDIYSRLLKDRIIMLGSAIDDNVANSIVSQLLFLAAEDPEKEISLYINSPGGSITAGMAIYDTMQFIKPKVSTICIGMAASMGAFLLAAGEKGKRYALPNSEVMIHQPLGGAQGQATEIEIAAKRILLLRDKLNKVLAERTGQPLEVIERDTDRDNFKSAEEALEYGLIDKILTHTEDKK
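Purified B. subtilis ClpP, 10 microg/mL final in Tris/HCl pH8 with KCl, BSA, glycerol and Tween-20, cleaved an Abz/nitrotyrosine-quenched decapeptide. Fluorescence (ex 320, em 430) was read at 0 and 20 min at room temperature. Delta was normalized to 5.8 microM ADEP and DMSO/no-enzyme controls.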
Sfp PPTase inh: blocks B. subtilis Sfp PPTase activity; Q9F4F7; Biochemical Sfp PPTase activity, qHTS; Potency, µM, without a hit: max response, negative = inhibition, usual class: inhibitors; 3.5% of 310,000 active; AID 1490; active means well fitted inhibition curve with a large enough effect; inconclusive means small, poorly fitted or top-dose-only effect, or another doubt; inactive means no such curve, though single readings can be large or run the other way;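 further: the enzyme is Sfp with the accession as filed and its product quenches rhodamine fluorescence; potency means the concentration at half of the fitted maximal effect; 0% = enzyme reaction without inhibitor and -100% = no enzyme wells; top concentration of the series not given in the record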
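With Hepes-Na pH 7.6 buffer containing 10 mM MgCl2, Sfp (15 nM) modified BHQ-2-YbbR (12.5 uM) using rhodamine-CoA (5 uM). Two reads 30 minutes apart at 525/598 nm yielded each well's rate.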
* = called active by the depositor; ? = inconclusive; . = not tested or not shown; [ ] = dose if it differs, or a comment. Random draw from the library. About 4.9% of those tested had a hit in this group.

#1 O=C(Nc1cc(Cl)ccc1C(=O)O)c1ccc(CN2C(=O)c3ccccc3C2=O)cc1
#2 O=C(CN1C(=O)NC(c2ccc(F)cc2)C1=O)Nc1ccc2c(c1)OCCO2 (configuration not stated)
#3 NS(=O)(=O)c1cccc(NC(=O)c2cccc(-c3ccc(O)cc3)c2)c1
#4 O=C(CCN1C(=O)C2C3C=CC(C3)C2C1=O)Nc1ccccc1 (configuration not stated)
#5 O=C(NCc1nnc(SCC(=O)N2CCCC2)o1)c1ccc(F)cc1
#6 CCN(C(=O)COC(=O)c1ccc(Cl)cc1N)C1CCCCC1
#7 CCOC(=O)N1CCC(NC(=O)c2ccc3c(c2)ncn3C2CCCC2)CC1
#8 COc1ccc(Br)cc1C(=O)Nc1cc(C)cc(C)c1
entry no.	1	2	3	4	5	6	7	8
TRPML1 inh	-18	-2	-1	-3	-1	-12	3	-29
ClpP mod	.	-2.3%	.	-2.6%	-3.0%	4.4%	-7.0%	-1.3%
TRPV1 potentiator	.	2	6	-4	-4	-18	-1	-18
Menin-MLL FL inh	.	.	2.4	1.7	1.0	0.6	0.7	1.2
gsp agonist	30%	-10%	2%[15.4 µM]	?	-1%[15.4 µM]	?	-22%	25%
gsp antagonist	3%	1%	-14%	10%	6%	6%	-4%	?
Sfp PPTase inh	.	.	0%	30%[activator]	20%	-1%	-6%	8%

In the list so far, these have nitrogen in an aromatic ring.
#5 O=C(NCc1nnc(SCC(=O)N2CCCC2)o1)c1ccc(F)cc1
#7 CCOC(=O)N1CCC(NC(=O)c2ccc3c(c2)ncn3C2CCCC2)CC1
entry no.	5	7
TRPML1 inh	-1	3
ClpP mod	-3.0%	-7.0%
TRPV1 potentiator	-4	-1
Menin-MLL FL inh	1.0	0.7
gsp agonist	-1%[15.4 µM]	-22%
gsp antagonist	6%	-4%
Sfp PPTase inh	20%	-6%

Next part:
#9 CC(=O)c1nn(-c2cccc(C(F)(F)F)c2)c(=O)[nH]c1=O
#10 CN1CCN(C(=O)c2ccccc2NC(=O)c2sc3ccccc3c2Cl)CC1
#11 O=C1CC(N2CCC(c3nc4ccccc4o3)CC2)C(=O)N1 (configuration not stated)
#12 Cc1ccc(C(=O)C2=C(O)C(=O)N(Cc3ccco3)C2c2cccc(Cl)c2)o1 (configuration not stated)
#13 Cc1ccc(/C=C/C(=O)Nc2sc3c(c2C#N)CCCC3)o1
#14 O=C1CCCCN1CCCC(=O)N1CCCC(Nc2ccc(F)cc2)C1 (configuration not stated)
#15 CCOc1cc(NC(=S)NCc2ccccc2)c(OCC)cc1NC(=O)C(C)C
#16 Cc1ccccc1/C=C1\CCCc2ccccc2C1=O
entry no.	9	10	11	12	13	14	15	16
TRPML1 inh	18	0	30	1	-19	7	-5	5
ClpP mod	0.6%	-0.9%	0.0%	1.0%	-12%	-3.7%	0.4%	-0.7%
TRPV1 potentiator	-4	0	-3	-2	-1	-11	-5	6
Menin-MLL FL inh	4.4	0.2	2.6	.	3.2	.	-0.6	2.4
gsp agonist	-9%[15.4 µM]	10%[15.4 µM]	19%	9%[15.4 µM]	23%	?	-13%	5%
gsp antagonist	4%	-1%	10%	-3%	7%	-7%	1%	-11%
Sfp PPTase inh	-3%	6%	17%	-24%	40µM*	8%	13%	-2%

#17 CCOC(=O)c1sc(-c2ccccc2)nc1C
#18 O=C(Nc1ccc(SC(F)F)cc1)c1ccccc1F
#19 Cc1ccc(O)c(CNc2cnc3ccccc3c2)c1
#20 CS(=O)(=O)N(CC(=O)N1CCOCC1)c1cccc(F)c1
#21 Cc1cc(C)n2nc(N)c(N=Nc3cccc(Cl)c3)c2n1
#22 OCC[C@@H]1C[C@@H](O)[C@H](O)[C@]2(CCCc3ccccc3O2)O1
#23 Cc1ccc(OCCOC(=O)Nc2ccccc2)cc1
#24 Cc1cc(C)c2[nH]c(=O)c(CN(CC3CCCO3)C(=S)Nc3ccccc3)cc2c1 (configuration not stated)
entry no.	17	18	19	20	21	22	23	24
TRPML1 inh	0	6	1	-14	10	0	10	14
ClpP mod	.	2.6%	.	-10%	.	-2.0%	-3.4%	6.9%
TRPV1 potentiator	?	1	-2	-1	4	23	-6	-4
Menin-MLL FL inh	2.2	0.4	-5.5	4.8	4.0	-0.1	5.9	-2.1
gsp agonist	1%[15.4 µM]	-57%[inhibitor]	-323%[inhibitor]	6%[15.4 µM]	-2%[15.4 µM]	1%	-10%	-2%[15.4 µM]
gsp antagonist	2%	3%	-14%	1%	-19%	1%	0%	-3%
Sfp PPTase inh	-1%	10%	5%	12%	0%	12%	23%	7%

#25 CC(C)COc1ccc(C(=O)Nc2ccc(SC(F)F)cc2)cc1
#26 C/C(=N/NC(=O)c1cccs1)c1ccc(N2CCOCC2)cc1
#27 Cc1nn(CC(=O)NCCC2=CCCCC2)c(C)c1S(=O)(=O)N(C)C
#28 CCS(=O)(=O)NCc1cn2ccsc2n1
#29 CC(=O)c1ccc(S(=O)(=O)N2CCN(CC(=O)Nc3ccnn3C3CCCC3)CC2)cc1
#30 C=C(C)Cn1c(SCC(=O)O)nnc1-c1ccccc1
#31 COc1cc(C2=NOC(C(=O)Nc3ccc(C)cc3)C2)cc(OC)c1OC (configuration not stated)
#32 O=Nc1ccc(NO)c2ccccc12
entry no.	25	26	27	28	29	30	31	32
TRPML1 inh	-5	16	-14	60	1	-17	-2	-13
ClpP mod	-5.1%	67%	-1.7%	4.7%	-0.4%	2.0%	-0.4%	-4.9%
TRPV1 potentiator	-13	-1	.	7	.	1	-6	.
Menin-MLL FL inh	1.6	-0.2	.	-1.0	.	0.9	-1.9	.
gsp agonist	?	3%	6%	-6%	-1%	-2%	?	-12%
gsp antagonist	7%	6%	7%	4%	-14%	3%	-7%	.
Sfp PPTase inh	10%	1%	.	5%	.	12%	2%	.

Another view of part of the listing above:
Fields: TRPML1 inh, ClpP mod, TRPV1 potentiator, Menin-MLL FL inh, gsp agonist, gsp antagonist, Sfp PPTase inh
26) C/C(=N/NC(=O)c1cccs1)c1ccc(N2CCOCC2)cc1
    16, 67%, -1, -0.2, 3%, 6%, 1%
27) Cc1nn(CC(=O)NCCC2=CCCCC2)c(C)c1S(=O)(=O)N(C)C
    -14, -1.7%, ., ., 6%, 7%, .

Later entries
#33 Cc1cccc(C)c1NC(=O)C(c1ccccc1)N1CC(=O)Nc2ccccc21 (configuration not stated)
#34 Cc1nn(-c2ccccc2)c2sc(C(=O)OCc3nnc(-c4ccccc4)o3)cc12
#35 Cc1cccc(N2CC(C(=O)Nc3ccc4c(c3)OCO4)CC2=O)c1C (configuration not stated)
#36 CN1CCN(S(=O)(=O)c2ccc(F)cc2)CC1
#37 CCOC(=O)CN(C(=O)Cn1nnc2ccccc21)C(C(=O)NCCOC)c1ccccc1 (configuration not stated)
#38 COc1ccc(C(=O)NNC(=O)c2ccc(C)cc2)cc1S(=O)(=O)N1CCCC1
#39 CCOC(=O)N1CCN(C(=O)CCc2ccccc2)CC1
#40 CCc1nn2c(=O)cc(COC(=O)c3cc(Cl)c(OC)c(OC)c3)nc2s1
entry no.	33	34	35	36	37	38	39	40
TRPML1 inh	6	30	6	-5	2	-6	-6	-18
ClpP mod	-1.1%	14µM*	0.9%	-2.4%	-1.1%	-1.0%	1.4%	-2.2%
TRPV1 potentiator	19	-23	1	.	-2	0	1	3
Menin-MLL FL inh	1.6	5.3	-1.5	.	2.9	-0.2	1.9	.
gsp agonist	29%	-2%	4%	-42%[inhibitor]	14%	0%[15.4 µM]	3%	-4%
gsp antagonist	-7%	7%	16%	.	4%	2%	-3%	-12%
Sfp PPTase inh	-29%	3%	10%	.	-1%	17%	12%	.

#41 COc1ccccc1C1=Nn2c(nnc2C2CCCCC2)SC1
#42 O=C(Cn1nc(-c2ccccc2)ccc1=O)N1CCOCC1
#43 CCOc1cc(CNCCSc2nnnn2C)cc(Br)c1OCc1ccccc1F
#44 CCOC(=O)N1CCN(C(=O)C2CCN(C(=O)Nc3ccccc3)CC2)CC1
#45 COC(=O)c1[nH]c2ccc(C)cc2c1NC(=O)c1ccccc1[N+](=O)[O-]
#46 Cc1ccc(S(=O)(=O)N2CCN(Cc3nnc(-c4c(-c5ccccc5)noc4C)o3)CC2)cc1
#47 COc1c2ccc(C(=O)NCc3cc(C(F)(F)F)cc(C(F)(F)F)c3)cc2nn1C
#48 COCCn1nnnc1C(C(C)C)N1CCC(Cc2ccccc2)CC1 (configuration not stated)
entry no.	41	42	43	44	45	46	47	48
TRPML1 inh	39	-22	3	-8	10	1	3	23
ClpP mod	-0.1%	-26%	-3.1%	-1.5%	-1.4%	-2.2%	3.5%	-1.7%
TRPV1 potentiator	-9	.	-10	.	-20	4	0	-6
Menin-MLL FL inh	2.1	.	-3.8	.	5.9	.	2.8	5.0
gsp agonist	0%	-35%[inhibitor]	-18%	-5%[15.4 µM]	-24%	7%	.	?
gsp antagonist	-18%	4%	-3%	7%	-6%	-1%	5%	-18%
Sfp PPTase inh	-15%	.	-12%	.	6%	.	5%	0%

#49 CC(C)CCNC(=O)Cc1c(C(=O)O)[nH]c2ccc(Cl)cc12
#50 CCCc1cc(NCc2ccccn2)n2c(nc3ccccc32)c1C#N
#51 O=C(NC12CC3CC(CC(C3)C1)C2)c1cc2nc(-c3ccco3)cc(C(F)(F)F)n2n1
#52 CN(CCc1ccccc1)C(=O)c1ccc(NC(=O)Cc2ccc(NC(=O)C3CCCN(C(=O)C4CCCC4)C3)cc2)cc1 (configuration not stated)
#53 Cc1cc(NS(=O)(=O)c2ccc(NC(=O)Nc3ccccc3)cc2)no1
#54 COc1cc2c(cc1OC)-c1cc(N3CCCCCC3)nc(=O)n1CC2
entry no.	49	50	51	52	53	54
TRPML1 inh	-12	9	11	5	-5	-7
ClpP mod	-16%	-0.3%	?	-1.9%	2.9%	25µM*
TRPV1 potentiator	?	-2	11	.	6	10
Menin-MLL FL inh	4.4	0.3	10.0	.	6.6	-2.7
gsp agonist	7%	6%[15.4 µM]	-1%	.	9%	-10%
gsp antagonist	4%	-14%	1%	-2%	1%	33%[activator]
Sfp PPTase inh	16%	-5%	20%	.	23%	-4%
